NS1 function inh – blocks influenza NS1 protein function. S. cerevisiae slowed by influenza A NS1, growth recovery by OD600. Potency, µM (doses to about 46.1 µM), inactives show at the highest dose activity, positive = more growth. hit rate 0.4% among 270,000; active means well fitted rising curve with a large enough effect; inconclusive means small, poorly fitted or top-dose-only effect; inactive means no such curve, though single readings can be large or run the other way; further: nearly all actives have a fitted effect of over 50% in size
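Read-out: OD600 growth recovery of NS1-expressing budding yeast. Cells grown overnight at 30C in -URA glucose medium, washed, resuspended and diluted 1:100 in 2% galactose assay medium, pH 6.0. Same strain lacking NS1 served as positive control.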
Marburg entry inh – blocks Marburg virus binding to or entry into cells. Marburg virus pseudotyped entry inhibition, cell reporter; control for the full effect not named in the record; about a third of the inactives were read at about 46 µM. Potency, µM (highest dose often 37.8 µM), for the others: at the top dose activity change, negative = inhibition, usual class: inhibitors. hit rate 1.8% among 300,000. AID 540276; active = well fitted inhibition curve with a large enough effect; inconclusive = small, poorly fitted or top-dose-only effect, or effect the other way; inactive = flat fitted curve, though single readings scatter; tested in HEK293 cells; about a fifth of its hits are not listed in these tables; further: on the % scale 0 is the no-effect control and ±100 the full control effect; luciferase read-out
Cruzain inh noDet – blocks cruzain activity in detergent-free assay. hit rate 2.3% among 200,000. purified cruzain, Z-FR-AMC fluorescence, no detergent. Potency, µM, inactives show max response, negative = inhibition, hits mostly inhibitors;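 further: plate controls were enzyme without inhibitor for no effect and buffer without enzyme for full effect; nearly all actives have a fitted effect of over 40% in size; top concentration of the series not given in the record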
Target sequence (P25779 123-467 limits assumed): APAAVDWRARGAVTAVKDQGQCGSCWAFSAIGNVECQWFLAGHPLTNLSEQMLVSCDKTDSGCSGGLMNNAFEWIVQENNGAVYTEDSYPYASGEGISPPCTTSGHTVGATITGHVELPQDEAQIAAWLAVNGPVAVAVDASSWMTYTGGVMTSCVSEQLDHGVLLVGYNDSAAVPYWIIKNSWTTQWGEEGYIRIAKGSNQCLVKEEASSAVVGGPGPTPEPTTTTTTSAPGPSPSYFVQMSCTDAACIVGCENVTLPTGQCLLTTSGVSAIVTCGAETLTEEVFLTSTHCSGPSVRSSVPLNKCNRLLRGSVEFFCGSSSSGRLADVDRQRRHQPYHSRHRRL
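Detergent-free condition (0.00005% Triton X-100) in acetate buffer pH 5.5 with DTT. 1.5 nM enzyme and compound were pre-mixed 15 min, then 2 uM Z-FR-AMC substrate added; reaction progress from fluorescence change between first and third reads (60 s).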
SARS PLpro yeast – inhibitors of SARS-CoV papain-like protease in yeast; hit rate 0.19% among 330,000; Potency, µM (doses to about 32.9 µM), inactives show top-dose activity, positive = growth rescue; S. cerevisiae expressing SARS-CoV PLpro, growth rescue; control for the full effect not named in the record; active means well fitted rising curve with a large enough effect; inconclusive means small, poorly fitted or top-dose-only effect; inactive means no such curve, though single readings can be large or run the other way; further: 0% is about no effect; nearly all actives have a fitted effect of over 55% in size; growth read by luminescence after 48 h
Lassa entry inh – blocks Lassa virus binding to or entry into cells; Potency, µM (doses to about 37.9 µM), for the others: at the top dose activity change, negative = inhibition, hits mostly inhibitors; Lassa virus pseudotype entry inhibition, cell reporter; control for the full effect not named in the record; hit rate 1.2% among 300,000; active means well fitted inhibition curve with a large enough effect; inconclusive means small, poorly fitted or top-dose-only effect, or effect the other way; inactive means flat fitted curve, though single readings scatter; tested in HEK293 cells; further: on the % scale 0 is the no-effect control and ±100 the full control effect; nearly all actives have a fitted effect of over 50% in size; luciferase read-out
RE007 growth inh – less growth of the S. pombe RE007 Vpr strain | AID 651644 | hit rate 0.21% among 360,000 | Potency, µM (titrated, usually from 92.2 µM), for inactives: top-dose activity change, negative = less growth | S. pombe RE007 Vpr strain, BacTiter-Glo ATP luminescence, 24 h; control for the full effect not named in the record; active = well fitted falling curve with a large enough effect; inconclusive = small, poorly fitted or top-dose-only effect; inactive = no such curve, though single readings can be large or run the other way;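 further: on the % scale 0 is the no-effect control and ±100 the full control effect; nearly all actives have a fitted effect of over 50% in size; the assay follows cell death caused by Vpr and the record does not say whether a fall means rescue or toxicity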
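Fission yeast RE007 carrying one integrated HIV-1 vpr copy, seeded at OD 0.01 in PMG+AL medium with 23 nL pinned compound. Grown 24 h at 30 degrees; viability read by BacTiter-Glo luminescence after 5 min.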
StopGo reporter – FMDV 2A StopGo reporter, luciferase signal; Potency, µM (doses to about 57.9 µM), inactives show at the highest dose signal change, negative = less light; AID 1159524; hit rate 1.2% among 410,000; human cells with a luciferase reporter of 2A StopGo recoding; control for the full effect not named in the record; active = well fitted falling curve with a large enough effect; inconclusive = small, poorly fitted or top-dose-only effect; inactive = no such curve, though single readings can be large or run the other way; tested in HEK293T cells; further: on the % scale 0 is the no-effect control and ±100 the full control effect; nearly all actives have a fitted effect of over 45% in size; luciferase light after 4 h
Cruzain inh Det – inhibitors of Trypanosoma cruzi cruzain with detergent. purified cruzain, Z-FR-AMC fluorescence, 0.01% Triton. P25779. Potency, µM, for the others: max response, negative = inhibition, actives largely listed as inhibitors. hit rate 0.43% among 200,000. AID 1478;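 further: plate controls were neutral wells for no effect and buffer without enzyme for full effect; nearly all actives have a fitted effect of over 40% in size; top concentration of the series not given in the record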
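Read-out: AMC fluorescence (360 nm excitation, 450 nm emission), four reads over 2 min, first-to-third difference used. Conditions: cruzain 1.5 nM, Z-FR-AMC 2 uM, pH 5.5 acetate, 5 mM DTT, 0.01% Triton X-100.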
Starred values were filed as active, the others as inactive; & = joins results of further samples; [ ] = dose if it differs, or a comment. Unless noted, the call rests on the fitted dose curve; in most records, active means well fitted curve in the direction sought with a large enough effect; inconclusive means small, poorly fitted or top-dose-only effect, or another doubt; inactive means no such curve, though single readings can be large; an effect the other way counts as inactive or inconclusive. Potency means the concentration at half of the fitted maximal effect.

`COc1ccccc1Cc1nc2ccccc2nc1SCC(=O)N(C)c1ccc(F)cc1` gave Cruzain inh noDet -7%, Lassa entry inh 12%[46.1 µM], StopGo reporter -3% and Cruzain inh Det -0.2%.
`CC(C)C(=O)NC(c1ccc(N(C)C)cc1)c1c(O)ccc2ccccc12` (stereo not drawn) gave NS1 function inh 2%, SARS PLpro yeast 0%, RE007 growth inh 1% and StopGo reporter 24%.
Screening COc1ccc(NC(=O)CSC2=Nc3ccccc3C3=NC(Cc4ccccc4)C(=O)N23)cc1Cl (stereo not drawn) returned Cruzain inh noDet 16µM*, Lassa entry inh -27%[46.1 µM], StopGo reporter 19% and Cruzain inh Det -4.1%.
Screening CCOc1ccc(CN(C)c2nc(-c3cccnc3)nc3ccccc23)cc1OC returned NS1 function inh -44%, SARS PLpro yeast -50%, RE007 growth inh 7% and StopGo reporter 25µM*.
For Cc1ccc(OCCOCCNC(C)C)c(Br)c1 the results were NS1 function inh 4%, Marburg entry inh inconclusive, Cruzain inh noDet 1%, SARS PLpro yeast 2%, Lassa entry inh 14%, RE007 growth inh -18%, StopGo reporter -19% and Cruzain inh Det 6.1%.
COc1ccc(CN(C)CC(=O)NC(=O)NCc2ccccc2)c(OC)c1 was read as NS1 function inh -14%, Marburg entry inh -23%, Cruzain inh noDet 13%, SARS PLpro yeast -7%, Lassa entry inh -1%, RE007 growth inh -18%, StopGo reporter inconclusive and Cruzain inh Det 0.5%.
CCc1nn2c(=O)cc(COC(=O)c3ccc(NC(=O)c4cccs4)cc3)nc2s1 was read as Cruzain inh noDet -5%, Lassa entry inh 18%[46.1 µM], StopGo reporter -21% and Cruzain inh Det 0.3%.
O=C1CC(c2ccco2)Sc2nc3ccccc3n21 (stereo not drawn) was read as NS1 function inh -63%, Marburg entry inh inconclusive, Cruzain inh noDet -9%, SARS PLpro yeast -2%, Lassa entry inh 7%, RE007 growth inh inconclusive, StopGo reporter 42%[activator] and Cruzain inh Det -3.3%.
`CCN(c1cccc(C)c1)C1C(=O)c2ccccc2N1C(C)=O` (stereo not drawn) gave NS1 function inh -2%, Marburg entry inh inconclusive, SARS PLpro yeast -2%, Lassa entry inh -21%[46.1 µM], RE007 growth inh 1% and StopGo reporter -15%.
COc1ccc(-n2nc([N+](=O)[O-])c(=NCCc3cccc(C)c3)n2O)cc1 was read as Marburg entry inh 7%[46.1 µM], SARS PLpro yeast -1%, Lassa entry inh -17%, RE007 growth inh 11% and StopGo reporter -22%.
`COC(=O)c1cn(-c2ccccc2)nc1-c1ccncc1` gave NS1 function inh -4%, Marburg entry inh -4%[46.1 µM], Cruzain inh noDet 4%, SARS PLpro yeast -4%, Lassa entry inh 0%, RE007 growth inh 2%, StopGo reporter -1% and Cruzain inh Det 2.2%.
`O=C(CSc1nnc(COc2ccc(Cl)cc2)o1)OC1CCCCC1` gave NS1 function inh -30%, Marburg entry inh 4%, Cruzain inh noDet 5%, SARS PLpro yeast -14%, Lassa entry inh -1%, RE007 growth inh -18%, StopGo reporter -7% and Cruzain inh Det -0.1%.
`CC(C)CC1c2[nH]c3ccccc3c2CCN1C(=O)c1cnccn1` (stereo not drawn) gave NS1 function inh 1%, Marburg entry inh 2.8µM*, SARS PLpro yeast 1%, Lassa entry inh inconclusive, RE007 growth inh -4% and StopGo reporter 29%.
COc1ccc(CC(=O)N[C@@H](C)C(=O)N2CCC3(CC2)NCCc2[nH]cnc23)cc1 was read as NS1 function inh -5%, Marburg entry inh 7%[46.1 µM], SARS PLpro yeast -8%, Lassa entry inh 20%[46.1 µM], RE007 growth inh 0% and StopGo reporter -11%.
CSCCC(NS(=O)(=O)c1ccccc1)C(=O)OCc1nc2ccsc2c(=O)[nH]1 (stereo not drawn) was read as Marburg entry inh inconclusive, SARS PLpro yeast -1%, Lassa entry inh -6%, RE007 growth inh -1% and StopGo reporter 1%.
`Cc1ccc2[nH]c3c(c2c1)CCc1cn[nH]c1-3` gave NS1 function inh -30%, Marburg entry inh 2%, Cruzain inh noDet 0%, SARS PLpro yeast -30%, Lassa entry inh inconclusive, RE007 growth inh inconclusive, StopGo reporter 43%[activator] and Cruzain inh Det -6.3%.
`CC(C)(CC(=O)OCC(=O)Nc1ccc(F)c(Cl)c1)CC1=NS(=O)(=O)c2ccccc2N1` gave Cruzain inh noDet 2%, Lassa entry inh inconclusive, StopGo reporter inconclusive and Cruzain inh Det -3.5%.
Screening COc1ccc2c(c1)C(=O)CC(c1ccccc1F)O2 (stereo not drawn) returned NS1 function inh -3%, Marburg entry inh 5%, Cruzain inh noDet 20%, SARS PLpro yeast -14%, Lassa entry inh -18%, RE007 growth inh -13%, StopGo reporter 61%[activator] and Cruzain inh Det -5.3%.
`S=c1nn[nH]c2ccccc12` gave Marburg entry inh inconclusive, Lassa entry inh 1%[46.1 µM], RE007 growth inh inconclusive and StopGo reporter 6%.
Screening COc1c(/C=C2/C(=O)NC(=O)N(C)C2=O)c(CCN(C)C(=O)c2ccccc2)cc2c1OCO2 returned NS1 function inh 11%, SARS PLpro yeast 6%, RE007 growth inh 4% and StopGo reporter -13%.
Cc1cc(C)n2nc(SCC(=O)Nc3ccc(F)cc3[N+](=O)[O-])nc2n1 was read as Marburg entry inh -20%, SARS PLpro yeast 0%, Lassa entry inh -7%, RE007 growth inh 18% and StopGo reporter -9%.
For COc1cc2c(cc1OC)CN(C(=O)CNS(=O)(=O)c1ccc(C)c(C)c1)CC2 the results were NS1 function inh -1%, Marburg entry inh -2%[46.1 µM], SARS PLpro yeast 9%, Lassa entry inh 10%, RE007 growth inh 13% and StopGo reporter 5%.
`O=C(CN1CCCCCC1)NCCN1C(=O)S/C(=C\c2ccccc2Cl)C1=O` gave NS1 function inh 4%, Marburg entry inh -20%[14.2 µM], SARS PLpro yeast -5%, Lassa entry inh 13%, RE007 growth inh -17% and StopGo reporter 10%.
For CC(=O)OCc1cc(=O)n(C)c(=O)n1C the results were NS1 function inh 6%, Marburg entry inh -1%, Cruzain inh noDet -1%, SARS PLpro yeast 4%, Lassa entry inh 3%, RE007 growth inh 6%, StopGo reporter 5% and Cruzain inh Det 7.8%.
For O=C(CN1CCN(c2ccc(F)cc2)CC1)Nc1ccc(S(=O)(=O)N2CCOCC2)cc1 the results were NS1 function inh 4%, Marburg entry inh 2%[46.1 µM], SARS PLpro yeast 1%, Lassa entry inh inconclusive, RE007 growth inh 0% and StopGo reporter -13%.
For COc1ccccc1CNC(=O)c1cc2sccc2n1Cc1ccc(Cl)cc1 the results were Marburg entry inh -17%[46.1 µM], Cruzain inh noDet -64%, Lassa entry inh 14%[46.1 µM], StopGo reporter -16% and Cruzain inh Det -2.6%.
Screening Cc1ccc(CCNC(=O)Cn2ccc3cc(S(=O)(=O)N4CCCC4)ccc32)cc1 returned NS1 function inh 3%, Marburg entry inh inconclusive, SARS PLpro yeast 2%, Lassa entry inh -29%[46.1 µM], RE007 growth inh 13% and StopGo reporter -11%.
CCN1CCSc2ccc(C(=O)NCc3ccccc3Br)cc21 was read as NS1 function inh -12%, Marburg entry inh 6%[46.1 µM], Cruzain inh noDet -2%, SARS PLpro yeast -2%, RE007 growth inh 8%, StopGo reporter 30%&8% and Cruzain inh Det 0.5%.
For CCN(CC)S(=O)(=O)c1ccc(NC(=O)c2ccc(N3CCCC3=O)cc2)cc1 the results were Marburg entry inh inconclusive, SARS PLpro yeast -1%, Lassa entry inh inconclusive, RE007 growth inh -2% and StopGo reporter inconclusive.
Screening Cc1cccc(-n2ncc3c(Nc4c(C)cc(C)cc4C)ncnc32)c1 returned Cruzain inh noDet 0%, Lassa entry inh -10%[46.1 µM], StopGo reporter -14% and Cruzain inh Det -8.4%.
Screening COc1ccc(-c2noc(C)c2-c2ccc3ccccc3n2)c(O)c1 returned NS1 function inh -158%, Marburg entry inh inconclusive, Cruzain inh noDet -7%, SARS PLpro yeast -18%, Lassa entry inh inconclusive, RE007 growth inh 3%, StopGo reporter -24% and Cruzain inh Det -7.4%.
`O=C1c2ccccc2-c2onc3c(N4CCN(CCO)CC4)cc(N4CCN(C(=O)c5ccco5)CC4)c1c23` gave NS1 function inh 4%, Marburg entry inh inconclusive, SARS PLpro yeast -4%, Lassa entry inh inconclusive, RE007 growth inh -14% and StopGo reporter 0%.
Screening Cc1cc(C)cc(NC(=O)Nc2c(Br)cnn2C)c1 returned NS1 function inh -2%, SARS PLpro yeast 0%, RE007 growth inh 3% and StopGo reporter 0%.
For CC(C)C(OC(=O)CN1C(=O)c2ccccc2C1=O)C(=O)NC1CCCCC1 (stereo not drawn) the results were NS1 function inh -1%, Marburg entry inh inconclusive, SARS PLpro yeast 2%, Lassa entry inh inconclusive, RE007 growth inh 5% and StopGo reporter -14%.
O=C(Nc1c(C(=O)N2CCN(c3ccccc3)CC2)oc2ccccc12)c1ccco1 was read as Cruzain inh noDet 6%, Lassa entry inh 4%[46.1 µM], StopGo reporter 14% and Cruzain inh Det -5.6%.
For Cc1ccc(C(=O)OCC(=O)NC(=O)c2ccccc2)o1 the results were Marburg entry inh 15%[46.1 µM], SARS PLpro yeast -3%, Lassa entry inh 8%, RE007 growth inh 6% and StopGo reporter -9%.
CCOc1nc2ccccc2nc1NS(=O)(=O)c1ccc(Cl)cc1 was read as NS1 function inh -7%, SARS PLpro yeast -1%, RE007 growth inh 1% and StopGo reporter -21%.
For COc1ccccc1C(CNC(=O)CNC(=O)c1ccc(C)c(C)c1)N1CCCC1 (stereo not drawn) the results were Marburg entry inh inconclusive, SARS PLpro yeast -1%, Lassa entry inh 11%, RE007 growth inh 0% and StopGo reporter -14%.
Screening CC1CCN(C(=O)CSc2nc(N)cc(N)n2)CC1 returned NS1 function inh -3%, Marburg entry inh 9%, Cruzain inh noDet -8%, SARS PLpro yeast 0%, Lassa entry inh 4%, RE007 growth inh 9%, StopGo reporter -9% and Cruzain inh Det 1.6%.
`CCOC(=O)c1sc2ncn(CC(=O)Nc3ccc(C)cc3C)c(=O)c2c1C` gave Marburg entry inh 20%[46.1 µM], Cruzain inh noDet -1%, Lassa entry inh -20%[46.1 µM], StopGo reporter -19% and Cruzain inh Det 2.5%.

Bioassay records (PubChem)
